ugtP null kill = compounds lethal to S. aureus RN4220 ugtP deletion mutant. OD600 growth, 16 h; some inactives read as strong as hits. hit rate 0.54% among 330,000. growth inhibition, % (no concentration beside the values);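 active = z-score under -3 and OD600 up to 0.15 on both plates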;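 note: plate controls were untreated wells for no effect and antibiotic for full effect; wells of about 80 µL received 100 nL stock; the first replicate is given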
Bead autofluor = compound fluorescence in toxin protease inhibitor counterscreen. AID 624483. fluorescence intensity (no concentration beside the values). hit rate 3.1% among 360,000. compound autofluorescence counterscreen, microsphere flow cytometry; stronger effect = higher value;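 active = at least 3 SD above the mean of all compounds, about 16000 in these data; inconclusive = too few beads counted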;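 note: 100 nL of 1 mM stock went into each well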
Sa RN4220 lethal = S. aureus RN4220 growth inhibition. OD600, 16 h. inhibition, % (no concentration beside the values). hit rate 0.33% among 330,000. AID 1259311;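 active = z-score of -3 or lower and OD600 up to 0.18 on both plates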;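 note: plate controls were untreated cells for no effect and reference antibiotic for full effect; stock transfer was 100 nL into about 80 µL; one replicate is shown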
BJeLR viability = BJeLR cell viability loss; AID 1554; hit rate 0.17% among 300,000; inhibition, % (no concentration beside the values); BJeLR (HRASV12) viability, CellTiter-Glo ATP luminescence, 48 h; reference of the scale not given here;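 active = replicate mean above 50%; inconclusive = above 50% but judged a plate artefact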;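 note: 50 nL library stock added to about 25 µL; numbers are from one replicate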
Mtb hypoxia inh = inhibitors of hypoxia-regulated fluorescent reporter in Mycobacterium tuberculosis; M. tuberculosis hypoxia-regulated fluorescent reporter, fluorescence; fluorescence inhibition, % (no concentration beside the values); hit rate 0.1% among 300,000; AID 1159583;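 active = 35 to 45% if threefold the growth effect, above 45% if 1.5-fold the growth effect; inactive = the rest, general growth blockers included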;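 note: wells of about 50 µL received 100 nL stock; 0% = vehicle wells and 100% = reference inhibitor wells; whole bacteria with a GFP reporter of the hypoxia response; strong numbers were not always called active; many hits fall short of the cut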
PrP 5UTR inh = inhibition of PrP 5' UTR reporter expression; cell-based PrP 5' UTR mRNA reporter, plate reader; inhibition, % (no concentration beside the values); hit rate 0.35% among 340,000;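 active = every replicate at 50% or more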;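 note: 0 = median of the neutral control wells; tested in H4 reporter cells; numbers are from one replicate; inactives centre near -14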
Mtb hypoxia inh growth = second read-out of Mtb hypoxia inh, no call of its own (marks repeat the call); growth inhibition, %; measured here: M. tuberculosis growth (absorbance);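 0% = vehicle and 100% = reference antibiotic; read after six days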
* marks the source's active call; other numbers are inactive results; ? = inconclusive; . = no result given.

#	compound	ugtP null kill	Bead autofluor	Sa RN4220 lethal	BJeLR viability	Mtb hypoxia inh	Mtb hypoxia inh growth	PrP 5UTR inh
1	Cc1cc(=O)oc2cc(NC(=O)C(C)Oc3ccccc3)ccc12 (stereo not drawn)	1	5332	2.6	7	2	3	-29
2	CCOC(=O)c1ccc(NC(=S)NCc2ccccc2)cc1	-8	3314	-0.1	-18	4	5	-52
3	CCOc1ccccc1-c1nc(C(N)=O)c2[nH]c(=O)n(-c3ccc(F)cc3)c2n1	14	4139	14	-9	3	5	-3
4	Cc1ccc(C(C(=O)NC2CCCC2)N(CCCO)C(=O)Cn2nnc(-c3ccc(C)o3)n2)cc1 (stereo not drawn)	9	4207	0.7	-5	-1	-7	-10
5	COc1ccc(C)cc1N(CC(=O)N1CCCCCC1)S(=O)(=O)c1ccccc1	1	3612	12	2	11	5	-26
6	CC(C)[C@H](NC(=O)c1ccccc1)C(=O)OCc1nnc(-c2ccccc2)o1	1	4574	3.0	2	-10	1	-20
7	COC(=O)c1sc(N)c(C(=O)OC)c1COC(=O)C12CC3CC(CC(O)(C3)C1)C2	23	5945	2.5	-2	-5	-2	-1
8	CC1CCc2sc(C(=O)NC(C)C3CCCO3)cc2C1 (stereo not drawn)	-3	5150	2.0	5	8	0	-28
9	COc1ccccc1/C=C/C(=C1/C(=O)N(c2ccccc2)N=C1C)c1ccc(C)cc1	.	1571	.	-19	.	.	-9
10	O=C(c1ccc(Cl)c(S(=O)(=O)N2CCCCCC2)c1)N1CCN(c2ccc(O)cc2)CC1	0	7661	9.3	.	9	4	-15
11	COc1ccccc1NC(=O)c1ccc(COc2ccc3c(c2)CCC3)cc1	13	1947	2.0	3	12	4	5
12	O=C1CC(NCc2ccc3c(c2)OCO3)C(=O)N1Cc1ccc2c(c1)OCO2 (stereo not drawn)	7	3356	3.5	.	.	.	-4

Quoted at random: two compounds from above, in no set order.
#	compound	ugtP null kill	Bead autofluor	Sa RN4220 lethal	BJeLR viability	Mtb hypoxia inh	Mtb hypoxia inh growth	PrP 5UTR inh
7	COC(=O)c1sc(N)c(C(=O)OC)c1COC(=O)C12CC3CC(CC(O)(C3)C1)C2	23	5945	2.5	-2	-5	-2	-1
10	O=C(c1ccc(Cl)c(S(=O)(=O)N2CCCCCC2)c1)N1CCN(c2ccc(O)cc2)CC1	0	7661	9.3	.	9	4	-15

Continued.
#	compound	ugtP null kill	Bead autofluor	Sa RN4220 lethal	BJeLR viability	Mtb hypoxia inh	Mtb hypoxia inh growth	PrP 5UTR inh
13	CN1C(=O)S/C(=C/c2ccccc2OCc2ccc(C(=O)O)cc2)C1=O	-7	5133	22	-1	1	3	-14
14	Cc1ccc2c(c1)cc1c(=O)n(CC(=O)N3CCCC3)nc(C)n12	8	5370	3.0	-5	7	7	-21
15	CCN(CC(=O)Nc1ccc2c(c1)OCCO2)CC(=O)Nc1ccccc1C(F)(F)F	-1	7415	0.6	.	6	4	-26
16	CCOC(=O)c1sc(Nc2ccccc2)nc1C	25	2918	1.6	-7	.	.	-68
17	O=C(CN(C(=O)Cn1nnc(-c2ccc(F)cc2)n1)c1cnc2ccccc2c1)NCC1CCCO1 (stereo not drawn)	1	4393	0.5	1	20	-5	-1
18	CCN(Cc1ccccc1)C(=O)CCS(=O)(=O)c1ccc2c(c1)n(C)c(=O)c(=O)n2C	-5	4205	-11	-6	3	6	-11
19	C=C(C)CN=C1SC(C(=O)Nc2sc3c(c2C(=O)OC)CCC3)C(N)=C1C(N)=O (stereo not drawn)	15	2178	4.6	-3	3	6	-37
20	O=C(c1ccc2c(c1)OCO2)C1CCCN(C2CCN(CCc3ccccc3)CC2)C1 (stereo not drawn)	-2	6775	0.8	2	7	7	-28
21	CC(CC(=O)Nc1ccc(Cl)cc1)=NNC(=O)C(=O)NCCO	8	.	7.2	.	4	15	.
22	C=CCNC(=O)C1CC(=O)N(c2ccc(OCC(=O)Nc3ccc(OC)cc3)cc2)C1 (stereo not drawn)	-7	8773	2.4	0	14	7	-8
23	CCCCCOc1ccccc1C(=O)NCCC(=O)O	-2	10706	3.6	-7	-1	5	-13
24	CCOC(=O)c1ccc(NC(=O)CSc2nncn2-c2cccnc2)cc1	7	4587	2.8	11	-11	8	-19
25	COc1ccc(/C=C2\SC(=NCc3ccccc3)N(Cc3ccccc3)C2=O)cc1OC	1	2452	-13	7	6	-5	-4
26	CN(C)C(=N)c1n[nH]nc1SCc1ccccc1	4	3759	6.2	1	-1	-3	-7
27	O=C(c1ccc(Cl)cc1)C1CCN(C(=O)N2CCOCC2)CC1	4	19889*	2.1	-1	4	0	2
28	COc1cc(OC)c(C(=O)CCCN2CCCC2)c(OC)c1	6	4352	28	-24	-2	-1	-2
29	Nc1ccc2c(c1)C(=O)c1ccccc1C2=O	3	.	2.7	3	-5	-4	-68
30	Cc1ccc(S(=O)(=O)CCC(=O)OCC(=O)NC(C)c2ccc(F)cc2)cc1 (stereo not drawn)	3	4039	3.6	.	2	-5	-18
31	O=C(NC1CCCCC1)c1ccc([N+](=O)[O-])o1	8	6323	7.8	0	.	.	-24
32	COc1ccc(C(=O)/C=C/c2cccs2)c(OC(=O)c2cccc([N+](=O)[O-])c2)c1	-6	2673	1.1	-12	.	.	-59
33	CC(NC(=O)C1CSC2(C)CCC(=O)N12)c1ccccc1Cl (stereo not drawn)	4	5743	4.9	0	0	-7	-14
34	O=C(c1cc2ccccc2oc1=O)N(Cc1cccs1)Cc1cccs1	-5	3838	9.8	-4	9	4	-2
35	COc1cccc(CNC(=O)N[C@@H](C)C(=O)O)c1	11	4715	3.1	3	7	11	-32
36	C=CCn1c2ccccc2c2nnc(SCc3ccc4nonc4c3)nc21	-8	8444	8.8	-1	18	6	-7
37	Cc1ccccc1NS(=O)(=O)c1cc2c3c(c1)C(C)C(=O)N3CCC2 (stereo not drawn)	-1	4218	5.1	0	4	-3	-14
38	CC12CCC(C(=O)N(CSC(=S)N/N=C\c3ccccc3Cl)C1=O)C2(C)C (stereo not drawn)	.	4541	.	-8	.	.	-45
39	CCOC(=O)Nc1ccc2ncn(C)c(=O)c2c1	14	4379	1.3	-1	9	7	6
40	Cc1cc(C)cc(NS(=O)(=O)c2ccc(NC(=S)Nc3ccccc3)cc2)c1	-11	2208	2.0	-6	-4	6	-28
41	CC1CCN(C2CC(=O)N(c3ccccc3)C2=O)CC1 (stereo not drawn)	10	4185	7.9	6	4	-3	-28
42	Cc1cccc2cc(C=NNC(=O)CN3CCCCC3)c(Cl)nc12	0	.	1.1	.	-2	4	.
43	O=C(Oc1ccc(C(=S)N2CCOCC2)cc1Cl)c1ccccc1F	12	.	1.3	5	6	1	-22
44	O=[N+]([O-])c1cc(Cl)cc(/C=N/n2cnnc2)c1O	.	3693	.	-4	.	.	14
45	O=C1CCC(C(=O)N2CCCC(Nc3ccc(F)cc3)C2)=NN1 (stereo not drawn)	3	4514	-1.0	-1	8	-3	-14
46	CN(CC(=O)Nc1ccccc1Br)C(=O)c1cccn1C	0	6423	1.6	12	0	10	-4
47	COCCNC(=O)CC(NS(=O)(=O)c1ccc(C)cc1)c1ccco1 (stereo not drawn)	1	2795	2.3	-1	.	.	-17
48	CCN1C(=O)N[C@@H](CCc2ccccc2)C(C(=O)OC)=C1C	.	3669	.	4	.	.	-11
49	CO[C@H]1[C@@H](OC)CC(OC2OC(CO)C(O)C(O)C2O)/C(=C\C#N)[C@@H]1O (stereo partly drawn)	.	3134	.	-6	.	.	-9
50	CCC(C)(C)NC(=O)C(c1cccnc1)N(CCOC)C(=O)Cn1nnc2ccccc21 (stereo not drawn)	0	2537	-16	2	2	-1	-10
51	C=C(C)Cn1c(=O)c2c(nc3n2CCCN3CCc2ccccc2)n(C)c1=O	8	4258	2.6	-8	11	9	-6
52	O=C(NC1CC1)c1cc2cc3ccccc3nc2s1	6	5181	2.2	-8	-5	-6	-72
53	O=C(CNC(=O)Cc1ccccc1)N=Nc1c(O)n(Cc2ccc3c(c2)OCO3)c2ccccc12	-1	2505	-2.8	-7	12	1	-16
54	O=C1CCN(Cc2ccccc2)S(=O)(=O)c2ccccc21	.	3496	.	2	.	.	-8
55	CC12CCC(=O)N1C(C(=O)Nc1nc3ccc(S(C)(=O)=O)cc3s1)CS2 (stereo not drawn)	7	6146	3.2	-11	1	3	-20
56	O=S(=O)(c1ccc2c(c1)OCCO2)N1CCC(n2cnc3cc(F)ccc32)CC1	-2	3698	3.8	4	8	4	-18
57	COc1ccc(C2=CC(c3ccc(Cl)cc3)n3cnnc3N2)cc1OC (stereo not drawn)	1	3417	7.4	4	3	12	-17
58	CC(=O)Nc1ccc(NC(=O)CSc2nnc(C)c(=O)[nH]2)cc1	5	3008	0.7	-3	9	1	-8
59	Cc1cc(=O)oc2ccc(OC(=O)c3cccc(S(=O)(=O)N4CCOCC4)c3)cc12	5	3164	5.6	-7	14	0	-8
60	O=S(=O)(NC1CCCc2ccccc21)c1cnc[nH]1 (stereo not drawn)	-1	.	-2.5	1	14	-1	-13
61	Cc1cc(C(=O)CN2C(=O)C(=O)N(Cc3ccccc3)C2=O)c(C)n1Cc1ccccc1	-8	8193	-1.0	.	3	5	2
62	COc1ccc(OC)c(NS(=O)(=O)c2ccc(NC(=O)C3COc4ccccc4O3)cc2)c1 (stereo not drawn)	-1	6590	-3.0	-3	10	5	-20
63	O=c1[nH]c(=O)n(-c2ccccc2Cl)c(O)c1C=NCCN1CCCCC1	-2	8126	-5.6	-3	-4	-2	-27
64	O=[N+]([O-])c1ccc(-c2ccc(C=NO)o2)cc1	34	.	9.2	.	-16	2	.
65	O=C(CCCSc1nc2ccccc2[nH]1)NC(c1ccccc1)c1ccccc1	-8	2091	7.5	-7	1	3	-22
66	COc1ccc(CN2CCN(C(C)C(=O)N3CCc4ccccc43)CC2)cc1OC (stereo not drawn)	8	3836	5.1	11	2	-6	-16
67	c1ccc2c(c1)nc1n2CCS1	0	10608	0.7	-4	-6	-3	-26
68	CCCc1cc(=O)[nH]c(SCC(=O)Nc2cc(S(=O)(=O)N3CCOCC3)ccc2Cl)n1	0	3038	3.0	.	10	2	-12
69	CC(C)C1(C(C)C)OC(=O)c2ccccc21	7	9419	4.3	-2	9	3	7
70	c1csc(-c2cnc3n2CCCC3)c1	3	4734	2.3	5	.	.	-22
71	CC1CC(N(C(=O)c2ccccc2Cl)c2ccccc2)c2ccccc2N1 (stereo not drawn)	1	4531	8.4	-4	.	.	-12
72	O=C(O)C1=C(C(=O)Nc2ccc(F)c(Cl)c2)CCCC1	4	3139	-0.1	-8	3	2	-23

Going on with the list.
#	compound	ugtP null kill	Bead autofluor	Sa RN4220 lethal	BJeLR viability	Mtb hypoxia inh	Mtb hypoxia inh growth	PrP 5UTR inh
73	O=C(Oc1ccc([N+](=O)[O-])cc1)N1CCC(N2CCCCC2)CC1	-7	4971	5.2	2	-5	5	-17
74	COc1cc(C=NN(C)S(=O)(=O)c2ccc(C)cc2)cc([N+](=O)[O-])c1O	10	.	18	.	15	4	.
75	Cc1cccc(NS(=O)(=O)Cc2ccccc2)c1C	10	4422	0.1	1	13	12	-16
76	CC(C)c1ccc(CCNC(=O)CCNS(=O)(=O)c2ccc(Br)cc2)cc1	-8	?	0.3	.	-11	2	18
77	CC[C@@H]1CCCCc2ccccc2[C@@H](C(=O)C[C@@H](O)CC(C)=O)OC1=O	2	3528	4.8	.	-4	-4	2
78	CN(C)C(=NS(=O)(=O)c1ccccc1)c1ccc([N+](=O)[O-])cc1	2	.	8.5	.	1	-6	.
79	N#Cc1cc2c(nc1Cl)CCC2	8	4135	6.9	-11	3	6	-17
80	O=C(CSc1ccc(-c2ccccc2)nn1)Nc1ccc2c(c1)OCCO2	0	2031	10	-1	-8	-3	-35
81	CC(=O)Oc1ccc(C=NNC2=NS(=O)(=O)c3ccccc32)cc1	4	.	0.8	.	-2	8	.
82	CCCNc1nc(C)c(C(C)=O)cc1C#N	8	4801	0.9	-5	.	.	-11
83	CC1(C)CC(=O)C2=C(C1)N=C1SCCC(=O)N1C2c1cccc([N+](=O)[O-])c1 (stereo not drawn)	11	4445	2.6	2	5	7	-12
84	Cc1ccc(OC(=O)CCc2c(C)nc3ncnn3c2C)cc1	0	5635	4.4	0	3	3	-53
85	Cc1ccc(NS(=O)(=O)c2ccc(CCC(=O)NCc3cccnc3)cc2)cc1	-2	4825	8.2	0	14	7	-12
86	CCc1ccc(CN(C(=O)c2ccco2)C2CCS(=O)(=O)C2)cc1 (stereo not drawn)	2	4713	-1.2	11	6	0	-7
87	Cc1ccc(-c2onc3ccc(C4OCCO4)cc23)cc1	0	3959	8.9	.	8	11	-51

Compound activity deposited in PubChem by several laboratories.
